Rango dissoc inh: prevents RanGTP from dissociating the Rango-importin beta complex. Biochemical FRET Rango-importin beta, RanGTP-induced dissociation. AID 540253. 340,000 tested, 0.071% active. Potency, µM (series often up to 46.1 µM), for inactives: at the top dose activity change, negative = inhibition. O95149+P62826; active means falling FRET ratio curve, often poorly fitted, with flat reads before Ran was added; inconclusive means other falling curves, or compound fluorescence or quenching; inactive means flat or rising ratio curve;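 further: potency means the concentration at half of the fitted maximal effect; % of control where 0% means no effect; nearly all actives have a fitted effect of over 45% in size; -100% = wells without RanGTP and RCC1; the record marks most hits as doubtful in a second field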
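Two FRET readings bracket the reaction: one 5 min after compound meets Rango–importin beta, another 45 min after RanGTP-RCC1 (0.6 uM Ran, 0.2 uM RCC1, 2 mM GTP) is added. Only the second defines inhibition.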
GLA inh pH 4.5: blocks human alpha-galactosidase A at pH 4.5; activity change, negative = inhibition, % at 105 µM; 230,000 tested, under 10 active; P06280; purified enzyme, 4-MU-alpha-Gal fluorescence, pH 4.5; inconclusive = small, poorly fitted or top-dose-only inhibition, or a rising curve; inactive = flat fitted curve, though single readings scatter; no compound was filed as active;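 further: 0% = full activity with enzyme and -100% = basal without enzyme; dose as in the result columns while the protocol names 77 µM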
Target sequence (P06280 whole entry, looked up): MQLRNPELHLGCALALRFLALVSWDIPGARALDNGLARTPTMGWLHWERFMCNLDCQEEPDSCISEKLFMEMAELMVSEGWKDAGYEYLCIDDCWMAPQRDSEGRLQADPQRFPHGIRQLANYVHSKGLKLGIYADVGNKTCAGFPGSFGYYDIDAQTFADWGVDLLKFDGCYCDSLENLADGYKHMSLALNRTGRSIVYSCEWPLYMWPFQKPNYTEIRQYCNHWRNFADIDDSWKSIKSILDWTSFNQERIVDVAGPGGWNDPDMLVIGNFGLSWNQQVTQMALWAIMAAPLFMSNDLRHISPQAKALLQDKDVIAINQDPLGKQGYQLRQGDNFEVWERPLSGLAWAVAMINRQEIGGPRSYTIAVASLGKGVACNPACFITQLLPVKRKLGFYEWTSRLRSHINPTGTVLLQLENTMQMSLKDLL
Rango complex inh: inhibitors of Rango-importin beta complex formation; Rango CFP/YFP FRET sensor + importin beta, 45 min; Potency, µM (doses to about 92.2 µM), without a hit: top-dose inhibition of complex formation; 340,000 tested, 0.031% active; active = rising FRET ratio curve, often small or poorly fitted; inconclusive = mostly compound fluorescence or quenching in the first reads; inactive = flat curves in all reads;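 further: potency means the concentration at half of the fitted maximal effect; 0% = DMSO wells and 100% = buffer wells lacking importin beta; nearly all actives have a fitted effect of over 15% in size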
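FRET biosensor Rango (snurportin 1 IBB between N-terminal EYFP and C-terminal Cerulean), 50 nM in PBS/1 mM DTT/0.02% Tween-20/0.1% BSA, preincubated 5 min RT with compound; 0.125 microM importin beta added, 45 min RT, CFP/YFP FRET ratio read.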
miR-21 reporter: miR-21 reporter, rising signal. HeLa miR-21 FLuc reporter, luciferase, 48 h. Potency, µM (top dose mostly 38.3 µM), for the others: at the highest dose reporter change, positive = more light. 340,000 tested, under 10 active. AID 2288; active = well fitted rising curve with a large enough effect; inconclusive = small, poorly fitted or top-dose-only effect; inactive = no such curve, though single readings can be large or run the other way;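 further: % of control where 0% means no effect; miR-21 action dims this reporter so a rising signal means less miR-21 action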
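HeLa miR-21-FLuc reporter line, endogenous miR-21; 2000 cells/well in DMEM/10% FBS; compound titration up to ~40uM final, 48 h, 37 degree Celsius; luciferase detection reagent, 15 min lysis, CCD luminescence.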
Active calls of the source: *; ? = inconclusive; . = not tested or not shown. An excerpt, so the mix of outcomes need not match the whole.

entry	Structure	Rango dissoc inh	GLA inh pH 4.5	Rango complex inh	miR-21 reporter
1	CCC(CC)c1nnc(NC(=O)CC(C)c2ccccc2)s1 (centres undefined)	-15%	.	2.9%	-1%
2	CCOc1ccc(CNC(=S)N/N=C\c2ccc([N+](=O)[O-])cc2)cc1	1%	4	6.2%	-20%
3	CCCCCCSc1ccc([C@@H]2[C@H]3C(=O)N(CC)C(=O)[C@H]3[C@]3(C(=O)OC)CCCN23)cc1	-3%	.	-3.1%	.
4	Cc1ccc(Cl)cc1N1CCN(C(=O)C(=O)N2CCCCC2)CC1	3%	-2	9.0%	-5%
5	COc1ccc(CNC(=O)C(OC(=O)c2ccco2)c2ccccc2)cc1 (centres undefined)	-3%	.	0.1%	-13%
6	N=C1SC(CC(=O)Nc2ccccc2[N+](=O)[O-])C(=O)N1c1ccccc1 (centres undefined)	7%	-1	-0.1%	0%
7	Oc1ccccc1-c1nc(N2CCCC2)c2ccccc2n1	2%	-5	0.8%	0%
8	CCCS(=O)(=O)N1CCC(C(=O)NCCN2CCCC2)CC1	-12%	4	-4.1%	-3%
9	CCCN(CC(=O)Nc1ccccc1C)C(=O)Cc1coc2cc(C)ccc12	0%	.	0.5%	-5%
10	COc1ccc(OCCCC(=O)NCCc2ccc(OC)c(OC)c2)cc1	0%	-4	-0.7%	-9%
11	CCOc1c2ccc(C(=O)NCc3ccccc3OC)cc2nn1CC	-3%	6	-4.2%	-10%
12	CC(=O)Nc1ccc(S(=O)(=O)N2CCN(c3cc(C(F)(F)F)ccn3)CC2)cc1	-6%	-8	-1.2%	10%
13	C/C=C/c1ccc(OCC(=O)N2CCc3cc(OC)c(OC)cc3C2)c(OC)c1	-13%	.	2.5%	0%
14	O=C(CSc1ncnc2sccc12)NCc1ccc2c(c1)OCO2	-19%	.	7.1%	.
15	CC1(C)CC(=O)c2c(oc3ccc(NS(=O)(=O)c4ccc(C(=O)O)cc4)cc23)C1	0%	-1	-1.2%	-1%

entry	Structure	Rango dissoc inh	GLA inh pH 4.5	Rango complex inh	miR-21 reporter
16	O=C(O)c1cccc(N2C(=O)C3CC=CCC3C2=O)c1 (centres undefined)	5%	1	-3.5%	-3%
17	CN(c1ccccc1)S(=O)(=O)c1cccc(C(=O)OCC(=O)NCc2ccccc2)c1	6%	.	4.4%	.
18	COCCC(=O)N1CCC(Oc2ccc(C(=O)NCCn3cccn3)cc2)CC1	-7%	.	-3.3%	0%
19	O=C(CCn1c(=S)[nH]c2ccccc2c1=O)NCCCN1CCOCC1	3%	0	2.1%	-6%
20	CC1CCN(c2ccc(-c3cccs3)nn2)CC1	13%	.	-0.7%	25%
21	O=C(NNC(=S)NCc1ccccc1)c1cccnc1	-8%	.	6.6%	-2%
22	CN(C(=O)C=Cc1ccccc1)c1ccccc1	10%	.	-1.6%	.
23	CC[C@]1(C(=O)OC)[C@H]2C(=O)N(Cc3ccccc3)C(=O)[C@H]2[C@H]2CN=C(SCc3ccc(Cl)cc3)N21	-1%	.	1.9%	.
24	CCOC(=O)c1ccc(S(=O)(=O)NNC(=O)Cc2csc(C)n2)cc1	7%	.	-1.0%	.
25	COc1ccc(OC)c(CN2CCCC(C(=O)N3CCCCC3)C2)c1 (centres undefined)	18%	-13	-0.6%	-5%
26	COC(=O)CN1C(=O)C(O)(CC(=O)c2ccc(C)o2)c2ccccc21 (centres undefined)	8%	1	-0.7%	-4%
27	O=c1c(Cl)c(NC2CC2)cnn1-c1ccccc1	0%	-10	-0.1%	-35%
28	O=C(/C=C/c1cn(-c2ccccc2)nc1-c1cccnc1)N1CCCC1	-5%	6	-0.5%	13%
29	Cc1ccc(Sc2ncnc(N)c2[N+](=O)[O-])cc1	3%	-2	-0.4%	-8%
30	COc1cc(C2Nc3ccccc3C(=O)N2NS(C)(=O)=O)c([N+](=O)[O-])cc1OC (centres undefined)	-10%	.	-1.5%	-6%

Four entries drawn at random from those above, as already listed:
entry	Structure	Rango dissoc inh	GLA inh pH 4.5	Rango complex inh	miR-21 reporter
3	CCCCCCSc1ccc([C@@H]2[C@H]3C(=O)N(CC)C(=O)[C@H]3[C@]3(C(=O)OC)CCCN23)cc1	-3%	.	-3.1%	.
20	CC1CCN(c2ccc(-c3cccs3)nn2)CC1	13%	.	-0.7%	25%
19	O=C(CCn1c(=S)[nH]c2ccccc2c1=O)NCCCN1CCOCC1	3%	0	2.1%	-6%
17	CN(c1ccccc1)S(=O)(=O)c1cccc(C(=O)OCC(=O)NCc2ccccc2)c1	6%	.	4.4%	.

Carrying on:
entry	Structure	Rango dissoc inh	GLA inh pH 4.5	Rango complex inh	miR-21 reporter
31	O=[N+]([O-])c1cccc(S(=O)(=O)NCCc2cn3ccccc3n2)c1	-6%	8	-6.1%	-1%
32	COc1cc(C2C(C#N)=C(N)N(c3ccc(F)cc3)C3=C2S(=O)(=O)CC3)ccc1O (centres undefined)	-21%	-3	?	0%
33	CN(C)c1ccc(-n2cccc2)cc1	-2%	3	-2.6%	-4%
34	CC(C(=O)Nc1ccc(C(=O)O)cc1)N1C(=O)c2ccccc2C1=O (centres undefined)	2%	2	-0.4%	-7%
35	CCOC(=O)N1CCC(N2C(=O)c3ccc(C(=O)Nc4cccc(OC)c4)cc3C2=O)CC1	-2%	.	1.5%	-2%
36	COc1cccc(C(=O)Nc2c3c(nn2-c2cccc(C)c2C)CS(=O)(=O)C3)c1OC	-4%	3	-0.9%	-12%
37	CC(=O)Nc1ccc(NCC(O)COc2ccccc2)cc1 (centres undefined)	2%	-2	1.8%	-1%
38	O=C(c1ccc(Cl)c([N+](=O)[O-])c1)N1CCN(c2ccccn2)CC1	2%	0	1.8%	-4%
39	Cc1onc(-c2c(F)cccc2Cl)c1C(=O)N[C@@H]1C(=O)N2C(C(=O)O)C(C)(C)S[C@H]12 (some centres undefined)	-9%	.	-0.9%	.
40	Cc1ccc(Oc2cc(C#N)c(C#N)cc2-n2nnc3ccccc32)cc1C	-3%	1	0.3%	-1%
41	Cc1cc(-c2ccc(C)c(S(=O)(=O)NCCCN3CCN(c4ccccc4)CC3)c2)on1	-10%	.	-0.2%	28%
42	Cc1ccc(/C=C/C(=O)CCC(=O)O)cc1	-7%	2	1.6%	-22%
43	C[C@H](NC(=O)c1ccc(Cl)cc1)C(=O)NNC(=O)c1cccs1	3%	.	3.0%	.
44	O=C(c1ccc(Cl)c(S(=O)(=O)N2CCc3ccccc32)c1)N1CCN(c2ccccc2O)CC1	-1%	.	0.7%	.
45	O=C(COc1ccccc1)Nc1ccc(NC(=O)c2ccco2)cc1	2%	-1	4.6%	-14%

entry	Structure	Rango dissoc inh	GLA inh pH 4.5	Rango complex inh	miR-21 reporter
46	O=C(O)c1ccc(-c2nc3ccccc3s2)o1	-12%	0	-2.1%	-31%
47	COc1ccc(N2CCCn3c2nc2c3c(=O)n(CCCc3ccccc3)c(=O)n2C)cc1	.	-7	.	-3%
48	CCSC1=C(C#N)C(c2ccccc2Cl)C(C(=O)c2cccs2)C(O)(C(F)(F)F)N1 (centres undefined)	3%	3	-0.9%	26%
49	CCOC(=O)c1ccc(S(=O)(=O)N2CCC(C(=O)N3CCN(c4ccccc4OC)CC3)CC2)cc1	0%	.	0.7%	.
50	C#CCN1C(=O)C2C(C(=O)NC)C3C=CC2(O3)C1C(=O)NCc1ccc(OC)cc1 (centres undefined)	3%	-1	-1.0%	-2%
51	CNC(=O)/C(C#N)=C/c1c(N(Cc2ccccc2)Cc2ccccc2)nc2ccccn2c1=O	?	0	?	-1%
52	Cc1ccccc1NC(=O)Cc1nc(COC(=O)c2nc(Cl)ccc2Cl)cs1	-3%	.	-1.4%	.
53	Cc1cc(C)cc(NC(=S)NCc2ccc3c(c2)OCO3)c1	3%	.	-4.4%	.
54	O=C(NC1CCCC1)C(c1ccncc1)N(C(=O)c1ccco1)c1ccc(F)c(Cl)c1 (centres undefined)	5%	.	0.4%	-4%
55	CN(CC(=O)Nc1ccc(OC(F)(F)F)cc1)C(=O)Cn1c(=O)cnc2ccccc21	3%	.	2.7%	.
56	Cc1ccc(C(=O)NC(=C(Cl)Cl)S(=O)(=O)c2ccccc2)cc1	27%	5	1.2%	?
57	CCCCCc1nc2c(=O)[nH]c3ccccc3c2o1	-8%	5	-0.3%	-22%
58	COC(=O)CC1C(=O)NCCN1C(=O)CSc1nc2cc(Cl)ccc2o1 (centres undefined)	2%	-21	1.9%	1%
59	CCN(CC)S(=O)(=O)c1ccc2nc(NC(=O)c3cccs3)sc2c1	-6%	-7	-3.7%	-22%
60	CCc1ccc(Nc2nnc(SCc3cc(=O)n4ccsc4n3)s2)cc1	0%	7	-0.1%	-27%

entry	Structure	Rango dissoc inh	GLA inh pH 4.5	Rango complex inh	miR-21 reporter
61	CC1=[N+](CC(=O)c2ccccc2)CCn2cccc21	-21%	-3	?	-37%
62	O=C(NCc1cccs1)C1CCCN(c2ncccn2)C1 (centres undefined)	-9%	-5	-2.4%	-6%
63	CC(NS(=O)(=O)c1ccc(CCC(=O)NCc2cccnc2)cc1)c1ccccc1 (centres undefined)	-13%	-3	-2.0%	-4%
64	CC(=O)N1CCc2c(sc(NC(=O)CN3C(=O)CCC3=O)c2C(N)=O)C1	-27%	-1	?	-4%
65	CCc1ccc(-c2nc(CSCC(=O)NCc3ccco3)c(C)o2)cc1	?	0	?	?
66	Cc1ccc(C(=O)N/N=C\c2ccncc2)s1	-2%	.	-0.9%	-47%
67	S=C1NCCOCCOCCOCCN1	-1%	9	3.3%	-1%
68	COc1ccc(-c2nc(Cn3c(SCc4ccccc4F)nc4ccncc43)c(C)o2)cc1	-5%	-4	-2.6%	-19%
69	COc1ccccc1CNC(=O)CN1C(=O)NC2(CCOc3ccccc32)C1=O (centres undefined)	14%	.	0.5%	.
70	Cc1cccc(N2CCN(C(=O)CCNS(=O)(=O)c3ccc4c(c3)oc(=O)n4C)CC2)c1C	-4%	.	1.6%	10%
71	Cc1ccc(CNC(=O)CSc2ncc(C(=O)Nc3ccccc3)c(=O)n2C)cc1	1%	.	2.6%	.
72	O=C(N/N=C/c1sc(N2CCOCC2)nc1-c1ccccc1)c1cccc(S(=O)(=O)N2CCCC2)c1	?	1	?	?
73	Cc1ccc(S(=O)(=O)NN=C2C3CC4CC(C3)CC2C4)cc1[N+](=O)[O-]	-7%	5	-0.1%	-3%
74	CC1N=C(N)C(c2nc3ccccc3n2C)=C1O (centres undefined)	-3%	11	-1.3%	-3%
75	O=C(COC(=O)COc1ccc(Br)cc1)NC1CCCC1	-16%	.	-3.0%	.

entry	Structure	Rango dissoc inh	GLA inh pH 4.5	Rango complex inh	miR-21 reporter
76	Cc1cc2nc(CSc3ccc(Cl)cc3)cc(=O)n2[nH]1	5%	-2	-4.2%	-2%
77	Cc1cc(OCCOCCNCc2ccccc2)ccc1C(C)C	-1%	.	-1.3%	8%
78	C/C(=N\NC(=O)c1cc(-c2ccc(O)cc2)nc2ccccc12)c1cccnc1	1%	.	0.1%	-4%
79	O=C(NC(=S)NNC(=O)c1ccccc1[N+](=O)[O-])c1ccc(Br)cc1	22%	.	1.4%	-26%
80	Cc1cccc(C)c1NC(=O)COC(=O)c1cc(-c2cccnc2)nc2ccccc12	-12%	-7	4.9%	-3%
81	Cc1csc(=O)n1CCC(=O)OCC(=O)NNC(=O)c1ccccc1	9%	.	-5.2%	.
82	O=S(=O)(c1ccc(NC(=S)NCc2ccco2)cc1)N1CCCC1	17%	7	0.5%	-1%
83	CCc1nnc(NC(=O)CSc2nnc(-c3ccc(S(=O)(=O)N4CCCC4)cc3)n2CC)s1	-17%	16	5.7%	-1%
84	COC(=O)Nc1ccc(S(=O)(=O)NCCO)cc1	3%	5	-3.0%	-1%
85	CCN(CC)CCNC(=O)c1ccc(NC(=O)C2CCN(c3ncnc4sc(C)c(C)c34)CC2)cc1	18%	.	0.6%	-2%

From PubChem BioAssay
